Cruzain Triton: qHTS Assay for Promiscuous and Specific Inhibitors of Cruzain (with detergent); Potency, µM, for the others: max response, negative = inhibition, usual class: inhibitors; AID 1478, 2009; purified cruzain, Z-FR-AMC fluorescence, 0.01% Triton; hit rate 0.43% among 200,000; Cruzipain (Trypanosoma cruzi), P25779;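 also: plate controls were neutral wells for no effect and buffer without enzyme for full effect; nearly all actives have a fitted effect of over 40% in size; top concentration of the series not given in the record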
Target sequence (P25779 123-467 limits assumed): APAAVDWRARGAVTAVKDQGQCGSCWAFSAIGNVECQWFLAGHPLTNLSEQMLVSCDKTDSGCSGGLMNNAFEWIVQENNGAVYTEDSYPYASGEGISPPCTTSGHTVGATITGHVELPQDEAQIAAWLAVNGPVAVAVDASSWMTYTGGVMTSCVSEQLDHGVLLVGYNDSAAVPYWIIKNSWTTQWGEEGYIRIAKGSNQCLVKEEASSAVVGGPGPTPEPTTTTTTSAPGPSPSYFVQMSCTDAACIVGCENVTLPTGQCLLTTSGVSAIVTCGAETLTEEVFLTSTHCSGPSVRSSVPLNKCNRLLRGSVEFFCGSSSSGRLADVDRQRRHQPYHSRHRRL
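Detergent-containing run (0.01% Triton X-100) in acetate buffer pH 5.5 with 5 mM DTT: enzyme at 1.5 nM final, 15 min compound preincubation at room temperature, then 2 uM Z-FR-AMC substrate. Activity taken as 60 s fluorescence increase at 360/450 nm.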
Cruzain noTriton: qHTS Assay for Promiscuous and Specific Inhibitors of Cruzain (without detergent); AID 1476, 2009; Cruzipain (Trypanosoma cruzi), P25779; Potency, µM, without a hit: max response, negative = inhibition, usual class: inhibitors; hit rate 2.3% among 200,000; purified cruzain, Z-FR-AMC fluorescence, no detergent;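 also: plate controls were enzyme without inhibitor for no effect and buffer without enzyme for full effect; nearly all actives have a fitted effect of over 40% in size; top concentration of the series not given in the record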
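Purified cruzain at 1.5 nM, pre-incubated 15 min with compound at room temperature in 100 mM sodium acetate pH 5.5, 5 mM DTT, 0.00005% Triton X-100. Reaction started with 2 uM Z-FR-AMC; AMC fluorescence increase over 60 s gives rate.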
NS1 inh: qHTS Assay for Inhibitors of Influenza NS1 Protein Function. hit rate 0.4% among 270,000. Potency, µM (series often up to 46.1 µM), inactives show top-dose activity, positive = more growth. S. cerevisiae slowed by influenza A NS1, growth recovery by OD600. AID 2326, 2010; active means well fitted rising curve with a large enough effect; inconclusive means small, poorly fitted or top-dose-only effect; inactive means no such curve, though single readings can be large or run the other way; also: nearly all actives have a fitted effect of over 50% in size
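In this qHTS, NS1 from influenza A is expressed in budding yeast, where it slows growth. Cells are switched from glucose to 2% galactose medium (pH 6.0, -URA), treated with compound, and growth recovery is read at OD600.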
RE007 growth inh: qHTS Assay for Inhibitors of the HIV-1 protein Vpr | S. pombe RE007 Vpr strain, BacTiter-Glo ATP luminescence, 24 h; control for the full effect not named in the record | Potency, µM (top dose mostly 92.2 µM), for inactives: at the highest dose activity change, negative = less growth | hit rate 0.21% among 360,000; active = well fitted falling curve with a large enough effect; inconclusive = small, poorly fitted or top-dose-only effect; inactive = no such curve, though single readings can be large or run the other way;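 also: % is scaled to controls: 0 for no effect and ±100 for the full control effect; nearly all actives have a fitted effect of over 50% in size; the assay follows cell death caused by Vpr and the record does not say whether a fall means rescue or toxicity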
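Fission yeast RE007 carrying one integrated HIV-1 vpr copy, seeded at OD 0.01 in PMG+AL medium with 23 nL pinned compound. Grown 24 h at 30 degrees; viability read by BacTiter-Glo luminescence after 5 min.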
StopGo reporter: High Throughput Screening for Foot and Mouth Disease Virus Antivirals; human cells with a luciferase reporter of 2A StopGo recoding; control for the full effect not named in the record; AID 1159524, 2015; hit rate 1.2% among 410,000; Potency, µM (doses to about 57.9 µM), for inactives: at the top dose signal change, negative = less light; active = well fitted falling curve with a large enough effect; inconclusive = small, poorly fitted or top-dose-only effect; inactive = no such curve, though single readings can be large or run the other way; tested in HEK293T cells; also: % is scaled to controls: 0 for no effect and ±100 for the full control effect; nearly all actives have a fitted effect of over 45% in size; luciferase light after 4 h
SARS PLP yeast: qHTS of Yeast-based Assay for SARS-CoV PLP; hit rate 0.19% among 330,000; AID 485353, 2010; Potency, µM (top dose mostly 32.9 µM), without a hit: top-dose activity, positive = growth rescue; S. cerevisiae expressing SARS-CoV PLpro, growth rescue; control for the full effect not named in the record; active means well fitted rising curve with a large enough effect; inconclusive means small, poorly fitted or top-dose-only effect; inactive means no such curve, though single readings can be large or run the other way; also: 0% is about no effect; nearly all actives have a fitted effect of over 55% in size; growth read by luminescence after 48 h
Lassa entry inh: qHTS for Inhibitors of binding or entry into cells for Lassa Virus | Lassa virus pseudotype entry inhibition, cell reporter; control for the full effect not named in the record | Potency, µM (top dose mostly 37.9 µM), for the others: at the highest dose activity change, negative = inhibition, hits mostly inhibitors | hit rate 1.2% among 300,000 | AID 540256, 2011; active means well fitted inhibition curve with a large enough effect; inconclusive means small, poorly fitted or top-dose-only effect, or effect the other way; inactive means flat fitted curve, though single readings scatter; tested in HEK293 cells; also: % is scaled to controls: 0 for no effect and ±100 for the full control effect; nearly all actives have a fitted effect of over 50% in size; luciferase read-out
Marburg entry inh: qHTS for inhibitors of binding or entry into cells for Marburg Virus | Marburg virus pseudotyped entry inhibition, cell reporter; control for the full effect not named in the record; about a third of the inactives were read at about 46 µM | Potency, µM (doses to about 37.8 µM), for the others: top-dose activity change, negative = inhibition, hits mostly inhibitors | hit rate 1.8% among 300,000 | AID 540276, 2011; active = well fitted inhibition curve with a large enough effect; inconclusive = small, poorly fitted or top-dose-only effect, or effect the other way; inactive = flat fitted curve, though single readings scatter; tested in HEK293 cells; about a fifth of its hits are not listed in these tables; also: % is scaled to controls: 0 for no effect and ±100 for the full control effect; luciferase read-out
* marks the source's active call; other numbers are inactive results; ? = inconclusive; . = not tested or not shown; [ ] = remark or other dose. Unless noted, calls follow the shape of the dose curve; as a rule, active = well fitted curve in the direction sought with a large enough effect; inconclusive = small, poorly fitted or top-dose-only effect, or another doubt; inactive = no such curve, though single readings can be large; an effect the other way counts as inactive or inconclusive. Potency is read from the fitted curve at half-maximal effect.

Values run as follows: Cruzain Triton | Cruzain noTriton | NS1 inh | RE007 growth inh | StopGo reporter | SARS PLP yeast | Lassa entry inh | Marburg entry inh
- COc1ccc(OC)c(C(=O)Cn2nnc3ccccc3c2=O)c1
    -1.9% | 1% | 7% | 13% | 14% | -3% | 18% | 13%
- COc1ccc(C)cc1NC(=O)C(=O)NCC(c1cccnc1)N1CCc2ccccc21 (stereo not drawn)
    -0.6% | -4% | . | . | ? | . | 21%[46.1 µM] | .
- C=CCOC(=O)C1=C(C)NC2(O)c3ccccc3C(=O)C12O (stereo not drawn)
    -0.3% | -5% | 4% | -4% | -12% | 0% | -7% | -25%
- Cc1c(C(=O)N2CCc3ccccc3C2)oc2ccc(S(=O)(=O)N3CCCCCC3)cc12
    -4.4% | ? | 20% | 17% | -3% | 7% | ? | ?
- N#Cc1ccc(NC(=S)NC(=O)C2CCCCC2)cc1
    . | . | . | ? | 33%[activator] | 1% | -22% | 7%
- CCOC(=O)N1CCc2c(sc(NCc3cc(OC)ccc3OC)c2C(=O)Nc2cc(OC)ccc2OC)C1
    -0.4% | ? | . | . | -4% | . | 7%[46.1 µM] | .
- CC1(C)Cc2c(oc3ncn4ncnc4c23)CO1
    2.6% | -10% | 3% | 0% | -18% | 6% | -2% | -3%
- COc1ccc(OC)c(NC(=O)CSc2nncc(=O)n2N)c1
    . | . | -3% | -1% | -30% | 4% | -13% | 2%
- O=C(N/N=C/c1ccco1)c1ccn[nH]1
    . | . | . | -6% | 2% | 1% | 26%[46.1 µM] | -2%[46.1 µM]
- COc1cc(/C=N/NC(N)=O)c(Br)cc1OCC(=O)Nc1ccccc1C
    0.4% | -7% | 13% | -14% | -7% | 2% | ? | 11µM*
- Cc1ccccc1-n1ncc2c1CC(C)(C)CC2NC(=O)CCC(F)(F)F (stereo not drawn)
    . | . | -10% | -18% | -2% | 10% | -14% | -22%
- COc1cccc(N2CCN(C(=S)Nc3ccc(F)cc3)CC2)c1
    . | . | 16% | 12% | 5% | 3% | . | .
- COc1ccc(C(=O)NCCSc2c(C)[nH]c3ccccc23)cc1
    -3.6% | -2% | . | . | -29% | . | 16%[46.1 µM] | ?
- O=c1[nH]c2cc3c(cc2cc1C(c1nnnn1C1CCCCC1)N1CCSCC1)OCCO3 (stereo not drawn)
    -9.8% | 2% | -5% | 1% | 24% | 15% | ? | ?
- CCC(C)NC(=O)C1(C)CCC(=O)N1Cc1ccccc1OC (stereo not drawn)
    2.7% | 6% | 6% | -4% | 6% | 0% | -1% | ?
- CC(C)(C)OC(=O)NCCNC(=O)c1cccs1
    . | . | -4% | -3% | 7% | 0% | -4% | 1%[46.1 µM]
- O=C(CN(CC1CCCO1)C(=O)CNS(=O)(=O)c1ccc(F)cc1)NC1CCCC1 (stereo not drawn)
    . | . | 2% | -13% | 6% | -3% | 3% | 6%[46.1 µM]
- O=C1Nc2ccc(Cl)cc2C12Nc1ccccc1-c1nnc(SCc3ccccc3F)nc1O2 (stereo not drawn)
    -8.0% | -10% | ? | -23% | -10% | -48% | ? | ?
- COc1ccc(S(=O)(=O)NCc2ccc3c(c2)cc(C)n3C)cc1
    -2.9% | ? | 15% | 8% | -15% | -3% | . | .
- CCCNC(=O)NC(=O)COC(=O)/C=C/c1cc(Br)ccc1F
    . | . | . | 4% | 7% | 1% | 1% | 16%[46.1 µM]
- CC1CCCN(CCC(=O)Nc2ccc(F)c(F)c2)C1 (stereo not drawn)
    . | . | 3% | -2% | 12% | 14% | ? | 3%
- COCCNCc1ccccc1
    0.8% | 1% | 8% | -11% | 5% | -2% | 27% | 12%
- O=C(Nc1ccc(Oc2cccnc2)nc1)c1ccc(C(F)(F)F)cc1
    . | . | -3% | 5% | ? | -3% | -13%[46.1 µM] | 5.6µM*
- CCOC(=O)Cn1c(=NC(=O)c2sc3ccccc3c2Cl)sc2cc(S(N)(=O)=O)ccc21
    -7.4% | 7.9µM* | 3% | -28% | -17% | -3% | 6% | -3%
- CCCn1c(=O)c2[nH]c(-c3ccc(S(=O)(=O)O)cc3)nc2n(CCC)c1=O
    38%[activator] | ? | -11% | 0% | -14% | . | 4% | ?
- CC(C)(C)OC(=O)N[C@@H](CC(=O)OCc1ccccc1)C(=O)O
    . | . | . | 7% | 2% | -2% | -28% | ?
- CC(=O)N(CCC(c1ccccc1)c1ccco1)Cc1cccs1 (stereo not drawn)
    -2.7% | 10% | 6% | -6% | ? | 0% | ? | -22%
- COc1ccc(CCN=C(N)NS(=O)(=O)c2ccc(C)c(C)c2)cc1OC
    . | . | 1% | 7% | 7% | -1% | -23%[46.1 µM] | 4%[46.1 µM]
- CCNc1nc(SCCOc2ccccc2)nc(N(C)C)n1
    -7.4% | -10% | -32% | -4% | 0% | -8% | 0% | -6%
- COc1ccc(CNc2cc(C)ccc2C)c(OC)c1OC
    -0.7% | -3% | -7% | -8% | -24% | -3% | 22% | -10%
- Cc1ccc(C(=O)N/N=C/c2ccc(S(=O)(=O)O)o2)c(Cl)c1
    -2.5% | -2% | ? | -10% | -12% | -8% | -6% | -6%
- CCOC(=O)C(C)n1cnc2sc3c(c2c1=O)CCC3 (stereo not drawn)
    2.2% | -3% | 11% | 19% | 3% | 1% | 11% | 3%
- COc1ccc(C(=O)NC2CC2)cc1OC1CCN(Cc2ccc(F)cc2F)CC1
    . | . | 1% | 4% | -17% | 0% | 3% | -19%
- O=S(=O)(NCc1cccs1)c1ccccc1Cl
    . | . | . | -24% | 30%[activator] | -2% | 2% | -11%
- Cc1cccc(N(CC(=O)NC(C)C)C(=O)CCC(=O)Nc2nccs2)c1
    . | . | 7% | 39% | 0% | -2% | . | .
- O=C(Nc1ccccc1)N1CCCC(c2nc(-c3cccs3)no2)C1 (stereo not drawn)
    -5.6% | 1% | -62% | 10% | 6% | 16µM* | 2% | 14%
- Cc1cc(=O)oc2c3c(cc(OCC(=O)NCCC(=O)N[C@@H](C)C(=O)O)c12)OC(C)(C)CC3
    . | . | 5% | 4% | -23% | 15% | 7%[46.1 µM] | 11%[46.1 µM]
- O=C(Nc1ccc2c(c1)OCO2)c1noc2c1CCCCC2
    -0.7% | 1% | -78% | ? | -6% | -13% | ? | ?
- COc1cc(NCc2ccccc2O)c2ncccc2c1
    . | . | ? | -8% | 8% | -3% | ? | ?
- COc1ccc(-n2cc(CNC3CCC(O)CC3)c(-c3cccc(F)c3)n2)cc1 (stereo not drawn)
    . | . | 0% | -9% | -13% | 0% | -17% | 18µM*
- Cc1ccc(S(=O)(=O)Nc2cc(=O)[nH]c(SCC(=O)Nc3ccccc3Cl)n2)cc1
    . | . | 11% | 0% | -21% | 0% | . | .
- CC1=C(C(=O)Nc2ccccc2C(F)(F)F)C(c2sccc2C)NC(=S)N1 (stereo not drawn)
    . | . | . | 7% | ? | 1% | ? | -22%[46.1 µM]
- C=C(C)CN(CC)C(=O)CCc1nnc(CCCc2ccccc2)o1
    . | . | -3% | 14% | 66%[activator] | -1% | -20% | -16%[46.1 µM]
- O=C(NCc1ccc2c(c1)OCO2)C(C(=O)c1ccccc1)n1cc(Cl)ccc1=O (stereo not drawn)
    -4.2% | -13% | -3% | -29% | -9% | 13% | 8% | -5%
- O=C(CSc1nc(Nc2ccccc2)nc(N2CCOCC2)n1)NC1CCCCC1
    . | . | 7% | -14% | 0% | 2% | ? | ?
- CC(C)CC(=O)NCCc1ccncc1
    -1.9% | -4% | 1% | 2% | -5% | 5% | 16% | ?
- Cc1cc(C)n(CC(=O)NC2CCCN(Cc3ccc(Cl)cc3)C2)n1 (stereo not drawn)
    . | . | -8% | -2% | 3% | 3% | . | .
- Cc1ccc(Nc2nnc(SCC(=O)NC3CCCc4ccccc43)s2)cc1 (stereo not drawn)
    -6.6% | 6% | 10% | 2% | -15% | 7% | -3% | -25%
- CC(C)(CO)NS(=O)(=O)c1ccc2c(c1)Cc1cc(S(=O)(=O)NC(C)(C)CO)ccc1-2
    . | . | -5% | 7% | -12% | -1% | 4% | 14%
- Cc1ccc(NC(=O)c2ccc(OC(=O)c3cc4ccccc4o3)cc2)cc1
    -2.2% | 7.9µM* | 1% | -9% | 36%[activator] | 3% | -17% | -28%
- Cc1ccc(Nc2ccc(N3CCN(C(=O)c4cccc([N+](=O)[O-])c4)CC3)nn2)cc1
    -11% | -6% | . | . | -8% | . | -9%[46.1 µM] | .
- O=C(c1cccc(N2CCCC2=O)c1)N1CCOCC1
    -5.1% | 0% | 7% | -19% | 20% | . | 10% | 16%
- COc1ccc(/C=N/NC(=O)c2cccc(OC(F)(F)C(F)F)c2)c(OC)c1OC
    -8.2% | ? | 1% | 5% | -21% | -23% | 10µM* | 23%
- O=C(C1=C[C@@H](c2csc3ccccc23)C[C@@H](OCc2ccc(CO)cc2)O1)N1CCOCC1
    . | . | 5% | -11% | -1% | -1% | . | .
- CCc1cccc(NC(=O)c2cc3c(=O)n(Cc4ccc(OC)cc4)ccc3nc2C)c1
    -6.3% | ? | . | . | ? | . | -7%[46.1 µM] | .
- CCCOc1ccc(NC(=O)CC2C(=O)N(c3ccc(C)cc3)C(=O)N2C(C)C)cc1 (stereo not drawn)
    -6.8% | ? | . | . | -4% | . | ? | .
- COc1ccc(/C=C/c2nc(C)c(-c3ccccc3)c(=O)[nH]2)cc1OC
    -6.6% | ? | -26% | -7% | -25% | 6% | . | .
- Clc1cc2nc[nH]c2cc1Cl
    . | . | -4% | 6% | 12% | -2% | 28% | 25%
- CCOC(=O)N1CCN(C(c2cccc(OC)c2)c2sc3nc(C)nn3c2O)CC1 (stereo not drawn)
    1.3% | ? | 2% | 0% | 15% | -5% | -16% | 5%[46.1 µM]
- CN(C)C(C)(C)C#CC(O)(c1ccccc1)c1ccccc1
    . | . | 0% | -14% | -22% | 1% | . | .
- O=C(Cc1ccc(Cl)cc1)Nc1cccnc1
    . | . | 11% | 2% | -3% | 0% | . | .

High-throughput results from PubChem.
